Source: PubChem
RecA splice inh: Mtb RecA intein splicing inhibition; 290,000 tested, 0.75% active; cell-free RecA intein splicing, fluorescence; P9WHJ3; AID 2221; inhibition, %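 (about 9 µM by stock and volumes)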; in the data active = inhibition above about 30%; inconclusive = no clear call, values can overlap the other calls;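 also: 0% = vehicle wells and 100% = reference inhibitor control wells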
Target sequence (P9WHJ3 whole entry, looked up, canonical isoform): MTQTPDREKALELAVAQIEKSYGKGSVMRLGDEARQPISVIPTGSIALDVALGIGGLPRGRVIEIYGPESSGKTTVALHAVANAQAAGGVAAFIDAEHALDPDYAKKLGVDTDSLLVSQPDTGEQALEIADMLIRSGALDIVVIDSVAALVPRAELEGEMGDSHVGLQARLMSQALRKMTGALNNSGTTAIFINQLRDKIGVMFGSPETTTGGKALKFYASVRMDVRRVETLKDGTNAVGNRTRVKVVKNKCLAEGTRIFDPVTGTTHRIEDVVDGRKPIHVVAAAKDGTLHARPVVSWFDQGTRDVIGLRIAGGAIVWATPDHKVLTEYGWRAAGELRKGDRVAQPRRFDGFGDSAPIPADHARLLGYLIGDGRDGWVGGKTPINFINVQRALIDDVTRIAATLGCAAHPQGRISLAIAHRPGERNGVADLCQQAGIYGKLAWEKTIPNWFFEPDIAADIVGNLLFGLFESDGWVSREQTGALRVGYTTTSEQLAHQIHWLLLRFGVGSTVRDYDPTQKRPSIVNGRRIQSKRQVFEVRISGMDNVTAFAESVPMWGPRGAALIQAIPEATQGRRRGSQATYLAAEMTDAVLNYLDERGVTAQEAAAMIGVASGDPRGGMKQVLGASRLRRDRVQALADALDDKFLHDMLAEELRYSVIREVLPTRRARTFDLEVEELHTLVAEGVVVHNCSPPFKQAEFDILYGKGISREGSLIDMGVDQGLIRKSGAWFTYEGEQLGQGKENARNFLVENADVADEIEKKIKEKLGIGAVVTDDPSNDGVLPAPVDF
Arbovirus inh: blocks arbovirus infection; arbovirus infection cell-based antiviral screen; inhibition, % at 10 µM; 200,000 tested, 0.37% active;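 active = inhibition from about 30%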;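 also: bluetongue infection of BSR cells; cell survival read as ATP light after 72 h; 0% = infected wells without compound and 100% = uninfected wells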
Mtb growth: M. tuberculosis H37Rv growth inhibitors, H37Rv strain (AID 1626) | M. tuberculosis H37Rv growth inhibition; higher % means a stronger effect | one-dose inhibition, % at 10 µM; IC50 in µM for titrated hits | 220,000 tested, 0.95% active;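 active = confirmed in a dose series; inconclusive = inhibition above 80% but not taken into the dose series; inactive = below 80% or under 30% at every dose of the series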;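 also: bacteria incubated seven days before Alamar blue readout; 0% = bacteria only wells and 100% = bacteria with antibiotic wells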
YopH inh: inhibitors of Yersinia enterocolitica YopH tyrosine phosphatase; fluorescence Ex485/Em525; inhibition, %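 (about 10 µM by stock and volumes)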; 140,000 tested, 0.16% active; AID 898;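 active = inhibition of 50% or more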;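 also: controls were vehicle for no effect and minimum signal wells for full effect; inactives centre near -20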
Mtb betalactam: beta-lactam sensitization of Mtb H37Rv. M. tuberculosis H37Rv growth with meropenem, percent inhibition; hits of this screen are not shown here. inhibition, % at 25 µM. 330,000 tested, 0.27% active;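 active = about 74% or more and at least 40 points above the plate without the antibiotic, then above 30% in a dose series; inconclusive = first-round hits that could not be retested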;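 also: growth measured after seven days incubation then overnight dye step; 0% = bacteria only wells and 100% = bacteria with antibiotic; twin plates without the antibiotic show which effects depend on it; some results filed as inactive read as strong as hits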
Arbovirus inh repeat: recorded beside Arbovirus inh, whose call it bears; inhibition, %; measured here: 10K subset replicate screen; many hits read low in the repeat;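 first of two repeat runs on a subset; 0% = infected and 100% = uninfected wells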
Starred values were filed as active, the others as inactive; ? = inconclusive; · = no result given. An excerpt. The share of hits here may be higher or lower than overall.

SMILES	RecA splice inh	Arbovirus inh	Mtb growth	YopH inh	Mtb betalactam	others
CCOc1cc(N2CCOCC2)c(OCC)cc1NC(=S)NCCCOC	-6.9	-2	7%	·	-3
O=c1cc(CSc2ccccc2)nc(-c2ccncc2)[nH]1	-6.2	10	3%	·	-2
COc1nc(NCc2ccc(Cl)cc2)nc(OC)n1	1.3	0	-9%	-28	-8
N#CC1=C(N)SC(N)=C(C#N)C1Cc1ccccc1	-7.0	0	-8%	-42	0
CC1C2CC(CC1(C)C)N(C(=O)Nc1ccc3nccnc3c1)C2 (stereo unspecified)	-0.5	-4	·	-33	1
CCOC(=O)CSc1ncc(-c2ccccc2)cn1	·	-1	15%	-42	97
O=C(NCc1ccco1)NC1CCCCC1	-1.8	0	-4%	-1	-2
CC(=O)c1c(C)n(-c2ccc(Br)cc2)c2ccc(O)cc12	1.6	·	·	·	1
Cc1ccc(C(=O)COC(=O)c2ccncc2)cc1[N+](=O)[O-]	5.7	-5	-6%	2	2
CN(c1nc2ccccc2n2c(C3CC3)nnc12)S(=O)(=O)c1ccccc1	-0.3	·	-8%	·	0
COc1ccc(C(=O)N(CCc2ccccc2)Cc2ccccc2)c(OC)n1	13	·	·	·	4
CC(C)(Cc1ccccc1)/[N+]([O-])=C\c1ccc(C(F)(F)F)cc1	0.8	·	·	·	-7
O=C(C[n+]1ccc(C(=O)NCc2ccccc2)cc1)c1ccc(OC(F)F)cc1	1.4	7	0%	·	2
Cc1cccc(-c2ocnc2C(=O)N2CCN(C(=O)c3cccs3)CC2)c1	1.4	·	·	·	-4
CCOC(=O)C1CCN(S(=O)(=O)c2ccc(C(C)(C)C)cc2)CC1	1.1	2	-6%	·	-2
Cc1csc(NC(C)c2nc3cc(C(F)(F)F)ccc3n2CCOCCO)n1 (stereo unspecified)	-1.2	·	-6%	·	-4
Cc1ccc(C23CC4CC(CC(CC(=O)N5CCOCC5)(C4)C2)C3)cc1	4.5	1	0%	-3	5
COc1cc(C(=O)NCC2(c3ccccc3)CCCC2)ccc1OC(C)C	-2.0	·	·	·	1
CC1CCCCC12NC(=O)N(CC(=O)OCC(=O)c1ccc(OC(F)F)cc1OC(F)F)C2=O (stereo unspecified)	0.7	·	·	·	-17
COc1cc(C2NC(=O)NC(C)=C2C(=O)OCc2ccc(C)cc2)cc(OC)c1OC (stereo unspecified)	-1.7	·	·	·	-6
O=c1[nH]c(=O)n(CCC2=CCCCC2)c(O)c1C=NCCN1CCNCC1	0.2	4	·	-41	-5
COC(=O)c1ccc(-n2nc(C(F)(F)F)c3c2-c2ccoc2CC3)cc1	·	-12	-6%	5	91
COC(=O)c1cc2n(n1)CCN(Cc1ccccc1Cl)C2=O	-1.3	3	·	-8	-11
N#Cc1nc(-c2ccc(F)cc2)oc1NCc1ccccc1	-0.5	5	12%	-45	-5	Arbovirus inh repeat=7
CC(=O)c1cccc(NC(=O)c2nc(-c3ccccc3)oc2C)c1	12	-4	5%	·	47
Cn1ccnc1/C(=N\NC(=O)c1ccc(O)cc1)c1cccc([N+](=O)[O-])c1	-2.5	·	-2%	·	4
CCOc1ccc(-c2cnc(NCc3cccc4ccccc34)n2CCOC)cc1	19	·	·	·	99
Cc1cc(Cl)ccc1NC(=S)NCc1cccs1	1.0	13	-5%	-1	-6
CCOC(=O)c1cc(C(=O)Nc2ccc(C)c(F)c2)nn1C	0.9	-6	5%	-29	23
COc1ccc(/C=N/Nc2nc(N3CCCC3)nc(N3CCCC3)n2)cc1O	·	6	-7%	18	-2

3 entries picked at random from those above:
SMILES	RecA splice inh	Arbovirus inh	Mtb growth	YopH inh	Mtb betalactam	others
COc1ccc(/C=N/Nc2nc(N3CCCC3)nc(N3CCCC3)n2)cc1O	·	6	-7%	18	-2
CC(=O)c1cccc(NC(=O)c2nc(-c3ccccc3)oc2C)c1	12	-4	5%	·	47
Cc1cc(Cl)ccc1NC(=S)NCc1cccs1	1.0	13	-5%	-1	-6

New compounds follow.
SMILES	RecA splice inh	Arbovirus inh	Mtb growth	YopH inh	Mtb betalactam	others
C/C(=N/N=C(\C)c1ccccc1O)c1ccccc1O	-9.8	·	·	·	-1
CCCNC(=O)COc1coc(CN2CCN(c3ccccc3F)CC2)cc1=O	1.7	·	·	·	6
c1ccc(CNc2ccc3ccccc3n2)nc1	0.3	-1	-6%	-25	-6
CCCCOC(=O)CCc1nc2ccccc2[nH]1	-0.3	1	-3%	3	4
CC1CCN(S(=O)(=O)c2cn(CC(=O)N3CCN(C)CC3)c(=O)c3ccccc23)CC1	-0.5	3	-3%	8	·
COC(=O)N1C(=O)[C@@](c2ccccc2)(C2CCCCC2)N1C(=O)OC	20	·	·	·	-6
OCCC1CN(Cc2cc3c(cc2Cl)OCO3)CCN1Cc1ccccc1 (stereo unspecified)	·	-10	4%	·	-1
N=c1c2c(-c3ccccc3)c(-c3ccccc3)n(Cc3ccccc3)c2ncn1CCO	13	-31	13%	-16	82
Cc1ccc(C(=O)/C=C/C(=O)O)cc1	-3.2	1	1%	-15	26
Cc1nn(CC(=O)N2CCCC2)c(=O)c2nn(-c3ccccc3)c(C)c12	-0.8	·	·	·	4
CCNc1nc(N2CCCCC2)nc(-n2nnc(C(=O)OCC)c2C)n1	7.0	-11	-8%	5	-7
c1cc(CNCC2CCCO2)ccn1 (stereo unspecified)	0.6	1	-6%	·	2
COc1cc(C(=O)NNC(=O)c2ccoc2C)cc(OC)c1OC	-1.2	10	-4%	·	1
Cc1cccc(NC2SC(=O)N(c3ccccc3)C2=O)c1 (stereo unspecified)	1.0	10	0%	-6	-3
COc1ccc(C(=O)N2CCN=C2SC)cc1	-1.4	-4	1%	·	-9
CC(=O)Nc1nc2nc(-c3ccccc3)cc(-c3ccccc3)n2n1	-6.0	-9	-4%	-42	-3
COc1c2ccoc2c(OC[C@@H](O)C(C)(C)O)c2oc(=O)ccc12	-5.4	1	-8%	-24	-9
CCOC(=O)c1cccc(NC(=O)CSc2nnc(-c3ccoc3C)n2CC)c1	2.4	1	-11%	-58	-4
CSc1nc2ccccc2n1Cc1cccc(F)c1	7.7	-2	11%	7	41
O=C1c2cccc3c(N4CCCCC4)ccc(c23)C(=O)N1c1ccccc1O	-15	-20	8%	·	1
Cc1cccc(OCC(=O)NCC(=O)N/N=C/c2cccs2)c1	-0.2	-2	1%	-25	4
N#Cc1c(N)nc(SCc2ccccn2)c(C#N)c1-c1cccs1	-0.6	-13	-3%	-34	-15
Cc1cccc(NC(=O)C2CCN(S(=O)(=O)c3ccc4ccccc4c3)CC2)n1	1.9	·	·	·	-11
COC(=O)Cn1c(CCC(=O)O)ccc1-c1ccccc1	-1.7	-2	-1%	-24	-15	Arbovirus inh repeat=1
CCCN1CCN(CCCNC(=O)c2cc3c(=O)[nH]c4ccccc4c3s2)CC1	1.4	-6	1%	·	-6
CCC1CCCCN1CCCNC(=O)CC1Oc2ccc(C)cc2NC1=O (stereo unspecified)	-2.5	1	-8%	-24	?	Arbovirus inh repeat=-4
CCCSc1nc2c(c(=O)n1CC)SC(C)C2 (stereo unspecified)	2.2	13	·	-42	-3	Arbovirus inh repeat=5
O=C(Cc1cn(Cc2cccc(Cl)c2)c2ccccc12)N1CCCCCC1	4.4	-19	6%	-14	-1
CC(C)C(OC(=O)c1cccs1)C(=O)NCc1ccco1 (stereo unspecified)	3.6	2	3%	13	-4
CCOC(=O)CNC(=O)CCCCCC(=O)NCC(=O)OCC	1.6	1	-10%	-39	-10
CN(C(=O)c1cc2ccccc2cc1O)C1CCCCC1	-4.6	·	·	·	-1
CSCCC(NC(=O)c1ccc(Cl)cc1)C(=O)NC(C)(C)C (stereo unspecified)	-0.6	0	-13%	-8	13
CCN(CC)C(=O)COc1ccc(-c2nnc(N3CCCCC3)c3ccccc23)cc1	5.5	4	-7%	-4	-3
C=CCN(CC=C)S(=O)(=O)c1ccc(NC(=S)NC(=O)c2ccco2)cc1	-3.3	-4	2%	-14	2
COc1ccc(C(=O)N2CCC(C(=O)O)CC2)cc1	-0.5	5	-15%	0	-2
CCCCn1nc(C(=O)NNC(=O)c2ccncc2)c2ccccc2c1=O	-0.4	·	·	·	-4
COc1ccc(-n2c(SCc3cccnc3)nc3c(c2=O)SCC3)cc1OC	1.1	10	4%	·	·
O=C(O/N=C\c1ccc(N2CCCCC2)c([N+](=O)[O-])c1)c1ccc(Cl)cc1Cl	5.8	8	·	-6	99
NC(=O)C1c2ccccc2Oc2ccccc21	2.7	·	·	·	2
CC(C)CCn1c(Sc2nc3ccccc3o2)nc2c1c(=O)[nH]c(=O)n2C	31*	1	3%	-16	4
O=C(CN1CCN(c2ccccc2)CC1)Nc1nnc(-c2ccccc2)s1	-1.2	-2	·	-32	0
CCOC(=O)CSc1nc2cc3c(cc2cc1CC)OCCO3	9.2	8	1%	7	94
COC(=O)C(C)(C)ONC(=O)Nc1ccc([N+](=O)[O-])cc1	-1.6	5	-4%	·	-4
COc1ccc(S(=O)(=O)Nc2c(C)cccc2C)cc1-n1cnnn1	0.1	·	·	·	1
CN(C)CCCNC(=O)Cc1ccc(Br)cc1	1.1	23	-10%	-16	3
CCOc1ccc(CCNC(=O)COC(=O)c2c(OC)cccc2OC)cc1OCC	3.6	·	·	·	5
O=C(Nc1ccc(Cl)c([N+](=O)[O-])c1)C(Sc1ccccc1)c1ccccc1 (stereo unspecified)	18	-32	5%	-8	4
CC1CC(C)CN(S(=O)(=O)c2ccc3c(c2)oc(=O)n3CC(=O)N(C)Cc2ccccc2)C1 (stereo unspecified)	-2.0	·	·	·	6
CC(C)(C)c1ccc(OCC(O)CNC(=O)c2ccccc2C(=O)O)cc1 (stereo unspecified)	0.0	·	0%	-14	3
CC(=O)C1=C(c2ccccc2)NC(=O)NC1c1cccs1 (stereo unspecified)	-1.5	·	·	·	6

Structures shown so far with a cyano group, in the order listed:
SMILES	RecA splice inh	Arbovirus inh	Mtb growth	YopH inh	Mtb betalactam	others
N#CC1=C(N)SC(N)=C(C#N)C1Cc1ccccc1	-7.0	0	-8%	-42	0
N#Cc1nc(-c2ccc(F)cc2)oc1NCc1ccccc1	-0.5	5	12%	-45	-5	Arbovirus inh repeat=7
N#Cc1c(N)nc(SCc2ccccn2)c(C#N)c1-c1cccs1	-0.6	-13	-3%	-34	-15

The listing continues:
SMILES	RecA splice inh	Arbovirus inh	Mtb growth	YopH inh	Mtb betalactam	others
CCn1c(SCC(=O)NC2CCS(=O)(=O)C2)nnc1-c1ccccc1 (stereo unspecified)	1.3	6	3%	·	-1
O=C(NCCCN1CCOCC1)c1ccc(NC(=O)C2COc3ccccc3O2)cc1 (stereo unspecified)	-0.7	1	-1%	·	5
CCOc1cc(S(=O)(=O)NC2CCCCC2)ccc1F	-0.4	-12	-3%	-31	-7
O=C(/C=C/c1ccccc1)c1ccc2c(c1)OCO2	5.4	·	22%	·	62
CSc1ncccc1C(=O)N1CCCC(C(=O)c2ccc3ccccc3c2)C1 (stereo unspecified)	-0.6	28	9%	·	-10
CCC1(C)Cc2c(sc3nc(SCC(=O)O)[nH]c(=O)c23)CO1 (stereo unspecified)	-0.8	5	-7%	-41	-6
O=c1c2ccccc2c(/C=N/c2n[nH]c(CCCO)n2)c(O)n1-c1ccccc1Cl	-16	4	4%	·	-4
CN(C)[C@@H]1C(=O)C(C(N)=O)=C(O)[C@@]2(O)C(=O)C3=C(O)c4c(O)cccc4[C@@](C)(O)[C@H]3C[C@@H]12	-3.4	·	-4%	·	2
COc1ccc(CNS(=O)(=O)c2cc(-c3cc(C)no3)ccc2C)cc1OC	-1.0	·	·	·	1
COc1cc(/C=C/c2ccc3cccc(O)c3n2)cc(Br)c1OC	1.8	·	·	·	96
CC(C)(C)Oc1ccccc1Nc1nc(NCCO)nc(N2CCCC2)n1	1.0	·	9%	·	16
O=C(C1CCCN(S(=O)(=O)c2ccccc2[N+](=O)[O-])C1)N1CCN(c2ccccc2)CC1 (stereo unspecified)	8.4	8	1%	1	-6
Cn1cccc1C(=O)NC(=O)COC(=O)CNS(=O)(=O)c1ccc(Br)cc1	0.5	2	-6%	13	-5
COc1ccc(C(=O)NC(=S)Nc2ccc(S(=O)(=O)Nc3cc(C)on3)cc2)cc1OC	1.8	·	0%	·	·
COC(=O)C1=C(Nc2ccc(C)cc2)C=C(C)C(C(=O)OC)C1c1ccc(F)cc1 (stereo unspecified)	-4.5	-17	0%	15	-1
O=C(CN1CCC(NC(=O)c2ccc(Br)cc2)CC1)NCc1cccs1	0.3	-5	-5%	·	-1
CCC(=O)N1CCN(c2nnc(-c3ccccc3)c3ccccc23)CC1	-1.4	·	·	·	-4
CN(C)S(=O)(=O)c1cccc(NC(=S)N2CCCCC2CO)c1 (stereo unspecified)	-0.4	15	-8%	·	-1
